# EPAC2 antag: validation of human EPAC2 antagonists. 16,000 tested, 1.7% active. EPAC2 Rap1B BODIPY-GDP exchange, fluorescence. Q8WZA2. Potency, µM (doses to about 112 µM), inactives show at the top dose activity, negative = inhibition, usual class: inhibitors; active = well fitted inhibition curve with a large enough effect; inconclusive = small, poorly fitted or top-dose-only effect; inactive = no such curve, though single readings can be large or run the other way;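 note: 100% = activation by cAMP agonist control; nearly all actives have a fitted effect of over 40% in size; the record reuses the description of the EPAC1 agonist screen; inactives centre near -10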
# Target sequence (Q8WZA2 whole entry, looked up): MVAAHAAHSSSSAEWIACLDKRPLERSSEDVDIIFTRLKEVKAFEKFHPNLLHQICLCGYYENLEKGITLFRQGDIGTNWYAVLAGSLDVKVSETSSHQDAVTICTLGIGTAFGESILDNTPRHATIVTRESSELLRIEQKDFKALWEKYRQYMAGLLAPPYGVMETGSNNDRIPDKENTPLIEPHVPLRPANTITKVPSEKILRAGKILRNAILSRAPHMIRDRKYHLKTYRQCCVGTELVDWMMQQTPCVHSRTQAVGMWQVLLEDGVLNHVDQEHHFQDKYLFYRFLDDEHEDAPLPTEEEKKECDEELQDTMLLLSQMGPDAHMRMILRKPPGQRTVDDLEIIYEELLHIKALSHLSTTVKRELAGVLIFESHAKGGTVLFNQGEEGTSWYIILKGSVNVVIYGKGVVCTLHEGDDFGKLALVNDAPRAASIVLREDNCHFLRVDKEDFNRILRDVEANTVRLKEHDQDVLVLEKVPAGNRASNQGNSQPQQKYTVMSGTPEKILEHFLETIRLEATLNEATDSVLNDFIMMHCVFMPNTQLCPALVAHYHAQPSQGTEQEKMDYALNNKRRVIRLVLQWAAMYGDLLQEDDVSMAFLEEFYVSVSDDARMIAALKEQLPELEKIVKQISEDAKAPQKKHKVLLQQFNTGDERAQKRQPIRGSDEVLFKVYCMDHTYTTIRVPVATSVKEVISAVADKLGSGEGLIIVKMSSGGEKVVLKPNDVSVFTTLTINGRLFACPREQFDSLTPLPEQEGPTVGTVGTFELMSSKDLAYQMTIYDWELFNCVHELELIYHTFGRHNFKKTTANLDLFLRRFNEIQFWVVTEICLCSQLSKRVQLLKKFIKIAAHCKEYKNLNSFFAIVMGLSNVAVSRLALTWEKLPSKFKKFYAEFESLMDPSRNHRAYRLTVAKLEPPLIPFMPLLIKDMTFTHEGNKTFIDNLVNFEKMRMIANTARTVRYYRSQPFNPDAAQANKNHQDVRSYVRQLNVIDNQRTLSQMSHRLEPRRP
#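 Normalized against a 6.5 mM cAMP agonist control, compounds were tested on 100 nM EPAC2 exchanging Rap1B-bound BODIPY-GDP (250 nM) for 50 uM GDP. Fluorescence drop (ex 480, em 540 nm) was tracked at room temperature over 30 min at 5-min intervals.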
# An asterisk follows results filed as active; ? = inconclusive; & = joins results of further samples; ! = a repeat was not active; [ ] = remark or other dose. Potency is the fitted concentration of half-maximal effect. These rows are one share of the data; rates above refer to the full screens.
SMILES,EPAC2 antag
CCCCCCCCCCCCCCCCCCc1ccc(C(=O)/C=C/C(=O)O)cc1,-7%[151 µM]
CC(=O)Nc1c(I)c(NC(C)=O)c(I)c(C(=O)O)c1I,13%
CS(=O)(=O)Nc1cccc(-c2nc(-n3ccnc3)c3ccccc3n2)c1,-20%
COc1ccc(CN2[C@@H](CC(=O)O)c3cc(F)ccc3S2(=O)=O)cc1,-3%
O=C(O)c1ccccn1,-1%
Nc1nc2ncc(CNc3ccc(C(=O)N[C@@H](CCC(=O)O)C(=O)O)cc3)nc2c(=O)[nH]1,-12%&-1%
CC(C)NC(=O)N1CCCC2(CCN(S(=O)(=O)c3ccccc3)CC2)C1,-11%
CN(C)Cc1ccccc1-c1nc(NC2CC2)c2ccccc2n1,-17%
COc1ccc(C2Sc3ccccc3N(CCN(C)C)C(=O)[C@@H]2OC(C)=O)cc1 (stereo partly specified),-10%[151 µM]
CC1(C)S[C@@H]2[C@H](NC(=O)[C@@H](NC(=O)N3CCNC3=O)c3ccccc3)C(=O)N2[C@H]1C(=O)O,6%[56.6 µM]
COc1ccccc1CNc1cc(-c2ccccc2C(F)(F)F)ncn1,-38%
COc1ccc(CNc2nc(-c3cccc(C#N)c3)nc3ccccc23)c(OC)c1,-36%
CC(COc1ccc(/C=C/c2ccccc2)cc1)[N+](C)(C)C (stereo unspecified),-9%
CC1CCC2[C@](C)(CO)C(O)CC[C@]2(C)C12CCC(CO)(CCO)O2 (stereo partly specified),-9%
O=c1c2ccccc2oc2ccc(-c3ccoc3)cc12,2%
CCOC(=O)N1CCN(Cc2ccc3c(c2)CN(C(=O)c2ccc(C#CC(C)(C)O)o2)CCO3)CC1,?
C=CCN(C(C(=O)OC)C(C)C)S(=O)(=O)CCNCc1ccccc1 (stereo unspecified),-27%
c1ccc(CN(CCN(Cc2ccccn2)Cc2ccccn2)Cc2ccccn2)nc1,-6%[151 µM]
CN(C)Cc1ccccc1-c1cc(N(C)Cc2ccco2)ncn1,-8%
COc1ccc(-c2nc3cnc(Nc4ccccc4)nc3n(CCC#N)c2=O)cc1,-4%
O=C(O)CCC/C=C\C[C@@H]1[C@@H](/C=C/[C@@H](O)COc2cccc(C(F)(F)F)c2)[C@H](O)C[C@@H]1O,?
COc1cc(C[C@@H]2NCCc3cc(O)c(O)cc32)cc(OC)c1OC,8%
CCO[C@H]1[C@H](NC(=O)c2cccnc2)c2ccccc2C12CCN(C(=O)c1cc(C)n(C)n1)CC2,-14%
CNCCNS(=O)(=O)c1cccc2cnccc12,-11%&-1%
COc1ccccc1N1CCN(CC2CN3C(=O)N(C)c4ccccc4C3=N2)CC1 (stereo unspecified),-5%
O=C(O)[C@H](O)[C@@H](O)[C@H](O[C@@H]1O[C@H](CO)[C@H](O)[C@H](O)[C@H]1O)[C@H](O)CO,14%[56.6 µM]
CN(C)C(=O)c1ccc(-c2ccc3ncnc(N4CCOCC4)c3c2)cc1,-17%
COC(=O)CC1C(=O)NCCN1C(=O)CN1Cc2ccccc2OC(c2ccccc2)C1 (stereo unspecified),-4%
NC(C(=O)N[C@@H]1C(=O)N2C(C(=O)O)=C(Cl)CS[C@H]12)c1ccccc1 (stereo partly specified),-2%
O=C(c1ccncc1)N1CCC2(CCN(Cc3ccncc3)CC2)CC1,-13%
CCN(CC)CCOC(=O)C(c1ccccc1)C1CCCCC1 (stereo unspecified),-15%
NC1CONC1=O (stereo unspecified),-1%&27%
O=C(O)C1=CCCN(CCON=C(c2ccccc2)c2ccccc2)C1,-6%&-1%&-23%
O=c1c(O)cccc2cc(O)c(O)c(O)c12,-7%
CC#C[C@]1(O)CC[C@H]2[C@@H]3CCC4=CC(=O)CCC4=C3[C@@H](c3ccc(N(C)C)cc3)C[C@@]21C,-27%&-11%
C=C(C(=O)O)[C@@H]1CC[C@@]2(C)CCC[C@](C)(O)[C@@H]2C1,8%
Cc1nc2cnc(N(C)C)nc2n(Cc2ccc(F)cc2)c1=O,-9%
C=C[C@](C)(O)CCC1C(=C)CC(OC(C)=O)C2C(C)(C)CCCC12C (stereo partly specified),10µM*
Cc1nc2cnc(N3CCOCC3)nc2n(C[C@H]2CCCO2)c1=O,-6%
O=C1CCN(Cc2ccc(O)cc2)CCN1[C@H](CO)c1ccccc1,-17%
COc1ccc(-n2c(=O)c(CCc3ccccc3)nc3cnc(N4CCOCC4)nc32)cc1,6%
CCCCCCCCCCCCCCCCCC(=O)NCC(COP(=O)([O-])OCC[N+](C)(C)C)OCC (stereo unspecified),-6%
CCOC(=O)C(Cc1ccc(O)cc1)NC(C)=O (stereo unspecified),-6%
CN1C2CC(OC(=O)C(CO)c3ccccc3)C[C@@H]1[C@H]1OC21 (stereo partly specified),-8%
COc1cc2cc(Oc3ccc4ccc(=O)oc4c3)c(=O)oc2cc1O,17%
O=S(=O)(c1ccccc1)N1CCC2(CCN(c3ccccc3)CC2)CC1,?
O=C(NCc1ccncc1)c1cnn(-c2nccc(-c3cccs3)n2)c1C1CC1,-22%
C[N+]1(CC(=O)c2ccc(F)cc2)CCc2ccccc2C1 (stereo unspecified),3%
CCC(c1ccccc1)c1noc(CCN(CC)CC)n1 (stereo unspecified),32%[activator]
O=c1c(O)c(-c2ccc(O)cc2)oc2ccccc12,-9%
COCCn1c(=O)cnc2cnc(OCc3ccccc3)nc21,-17%
C[N+](C)(CCCCCC[N+](C)(C)CCCN1C(=O)c2cccc3cccc(c23)C1=O)CCCN1C(=O)c2cccc3cccc(c23)C1=O,-16%
CCCCN1CC[C@H]2C=CC[C@@H](C(=O)NCc3cccnc3)[C@H]2C1=O,-24%
CNc1nc(-c2ccc3c(c2)OCO3)nc2ccccc12,-29%
CC(=O)OC1CCC2(C)C3=C(CCC2C1(C)C)[C@]1(C)CCC(C(C)CCC=C(C)C)[C@]1(C)CC3 (stereo partly specified),?
CC(C)Oc1ccc2c(=O)c3cc(C(=O)O)ccc3oc2c1,?
Cc1cc2c(cc1C)N[C@]1(C[C@H]3CCCC(=O)N4CC[C@@H](C1)[C@@H]34)C(=NC(C)(C)CC(C)(C)C)N2,?
O=c1c(-c2cc(F)cc(F)c2)nc2cnc(Oc3ccccc3)nc2n1C[C@H]1CCCO1,-11%
O=C(OCCOCCO)c1ccccc1Nc1cccc(C(F)(F)F)c1,-20%[56.6 µM]
C[C@H](O)[C@H](O)[C@H]1CNc2nc(N)[nH]c(=O)c2N1,9%

# Other compounds:
SMILES,EPAC2 antag
O=C(N[C@H]1CCC(=O)N([C@H](CSc2ccc(Br)cc2)Cc2ccccc2)CC1)OCc1ccccc1,1%
CC1(C)CC(=O)C([C@H]2C3=C(CC(C)(C)CC3=O)Oc3ccccc32)C(=O)C1,-11%
O=C(O)/C=C/c1ccccc1,13%
CC(C)C(N)C(=O)NC(Cc1c[nH]c2ccccc12)C(=O)O (stereo unspecified),2%
COC(=O)[C@]1(C)CCC[C@]2(C)c3ccc(C(C)C)cc3C(=O)CC12 (stereo partly specified),-23%
COc1cccc(Cn2c(=O)cnc3cnc(Oc4cccc(Cl)c4)nc32)c1,?
COc1ccc(S(=O)(=O)NCc2nc(N3CCCC3)c3cccc(C)c3n2)cc1OC,-19%
CN(C)C(=O)c1ccc(-c2nc(Nc3ccncc3)c3ccccc3n2)cc1,-15%
Cc1ccsc1C(=O)N(Cc1cc2cc3c(cc2nc1N1CCOCC1)CCC3)CC1CCCO1 (stereo unspecified),2%
Cc1ccc(O)c2ncccc12,-25%
C[C@H](CC[C@@H]1OC1(C)C)C1CC[C@H]2[C@@H]3CC=C4C[C@@H](O)CC[C@]4(C)[C@H]3CC[C@]12C (stereo partly specified),-15%
COc1cc2nc(N3CCCC(O)C3)c(CNCc3ccccc3C(F)(F)F)cc2c(OC)c1OC (stereo unspecified),-5%

# Some of the entries so far, as labelled records.
SMILES: NC1CONC1=O (stereo unspecified)
  EPAC2 antag: -1%&27%
SMILES: CC(C)NC(=O)N1CCCC2(CCN(S(=O)(=O)c3ccccc3)CC2)C1
  EPAC2 antag: -11%
SMILES: CN(C)C(=O)c1ccc(-c2nc(Nc3ccncc3)c3ccccc3n2)cc1
  EPAC2 antag: -15%
SMILES: Cc1ccc(O)c2ncccc12
  EPAC2 antag: -25%

# Filtered by structure: those above containing a thiophene ring, fused or not.
SMILES,EPAC2 antag
O=C(NCc1ccncc1)c1cnn(-c2nccc(-c3cccs3)n2)c1C1CC1,-22%
Cc1ccsc1C(=O)N(Cc1cc2cc3c(cc2nc1N1CCOCC1)CCC3)CC1CCCO1 (stereo unspecified),2%

# More results follow.
SMILES,EPAC2 antag
COc1cc(C(=O)N2CCCCCCC2)cc(OC)c1OC,-1%
C[C@@H](NC(=O)/C(C#N)=C/c1ccc(O)c(O)c1)c1ccccc1,2%&-22%
Cc1ncoc1C(=O)N1CCOc2ccc(CN3CCN(c4ccccn4)CC3)cc2C1,-22%
COc1cccc(-n2c(SC)nnc2C2CCN(Cc3nc4ccccc4s3)CC2)c1,-24%
C=CCc1ccc(OC(=O)c2ccccc2)c(OC)c1,?
CCN1CCN(C(=O)N[C@@H](C(=O)N[C@@H]2C(=O)N3[C@@H]2SC(C)(C)[C@H]3C(=O)O)c2ccccc2)C(=O)C1=O,-1%
N#Cc1ccc(CN2CCCC3(CCN(C(=O)c4csnn4)CC3)C2)cc1,-27%
Cc1cc(=O)c(C(=O)N(C)CCc2ccccn2)c2n1-c1ccccc1SC(c1ccsc1)C2 (stereo unspecified),-4%
CCOC(C)OCC,-15%
OC1(c2cccnc2)CCN(Cc2ccc3c(c2)CN(Cc2cc4ccccc4s2)CCO3)CC1,-43%
CCCC[C@@]1(C2CCCC2)Cc2cc(OCC(=O)O)c(Cl)c(Cl)c2C1=O,14µM*
COc1ccc(Oc2ncc3nc(-c4cccs4)c(=O)n(CCC#N)c3n2)cc1,5%

# Reprinted from the part before: five entries, then new ones.
SMILES,EPAC2 antag
Cc1cc(=O)c(C(=O)N(C)CCc2ccccn2)c2n1-c1ccccc1SC(c1ccsc1)C2 (stereo unspecified),-4%
CCOC(C)OCC,-15%
OC1(c2cccnc2)CCN(Cc2ccc3c(c2)CN(Cc2cc4ccccc4s2)CCO3)CC1,-43%
CCCC[C@@]1(C2CCCC2)Cc2cc(OCC(=O)O)c(Cl)c(Cl)c2C1=O,14µM*
COc1ccc(Oc2ncc3nc(-c4cccs4)c(=O)n(CCC#N)c3n2)cc1,5%
O=C(c1cnccn1)N1CCC2(CC1)CN(c1ncccn1)C2,-7%
COc1cc(O)c(C(=O)O)c(O)c1,-6%
COC(=O)c1c(OCC2CCCN(C)C2)cc(=O)n2c1CCN(Cc1ccc(OC)c(O)c1)CC2 (stereo unspecified),-12%
Cc1c(C(=O)NCCN2CCOCC2)cnn1-c1nccc(-c2cc3ccccc3o2)n1,-8%
O=c1cnc2cnc(Oc3cccc(Cl)c3)nc2n1Cc1ccc(F)cc1,10µM*
CCCS(=O)(=O)NCc1c(C)ncc2c1CCN(C(=O)c1cccc(Cl)c1F)C2,-21%
COc1ccccc1CCc1nc2ccccc2n1C1CCN(C(=O)c2cn3ccsc3n2)CC1,5%
N[C@H](C(=O)O)[C@H](Cc1ccccc1)C(=O)O,4%
CC(=O)OC/C=C(\C)CC/C=C(\C)CC/C=C(\C)CC/C=C(\C)CC/C=C(\C)CC/C=C(\C)CC/C=C(\C)CC/C=C(\C)CCC=C(C)C,-10%
CNc1ncncc1-c1ccc(C(=O)N(C)C)cc1,-2%
Cc1nc2cnc(N3CCNCC3)nc2n(Cc2cccs2)c1=O,6%
CC(C)c1ccc2c(c1)CC[C@@H]1[C@@](C)(CN)CCC[C@]21C,-11%
CC(C)=CCc1c(O)cc2occ(-c3ccc4c(c3)OCO4)c(=O)c2c1O,-25%
COc1ccc(-n2c(=O)c(C)nc3cnc(OC)nc32)cc1,2%
CC(=O)OCC(=O)[C@@]1(O)[C@H](OC(C)=O)C[C@H]2[C@@H]3CCC4=CC(=O)C=C[C@]4(C)[C@@]3(F)[C@@H](O)C[C@@]21C,-3%
Fc1ccc(/C=C/c2ccc3ccccc3n2)cc1,-19%
COc1cccc(OC)c1CN1CCC2(CCC(CNC(=O)c3ccn(C)n3)O2)CC1 (stereo unspecified),-21%
CCCCC/C=C\C/C=C\C/C=C\C/C=C\CCCC(=O)O[C@H](COCCCCCCCCCCCCCCCC)COP(=O)([O-])OCC[N+](C)(C)C,-24%[11.4 µM]
CCCCCCCCCC(=O)O[C@H](CC(=O)O)C[N+](C)(C)C,-25%
COC(=O)/C(=C1/OC(=O)C(c2ccccc2)=C1O)c1ccccc1,-12%
Cc1cnc(-n2ncc(C(=O)NCc3ccncc3)c2-c2cccs2)nc1-c1ccc(F)cc1,-14%
Cc1ccccc1-c1ccc2ncnc(N3CCNCC3)c2c1,-2%
C[N+](C)(C)CCOC(=O)CCC(=O)OCC[N+](C)(C)C,-20%&45%
COc1cccc(C(=O)O[C@H]2[C@H](C)NS(=O)(=O)[C@H]3C[C@@H]4C=C[C@]23O4)c1,?
CCOC(=O)Cc1ccc(-c2ccccc2)cc1,-9%
CN(CCO)C(=O)c1cn(C2CCN(Cc3c(F)cccc3Cl)CC2)nn1,?
O=C(O)CP(=O)(O)O,0%&-14%
O=C(c1ccncc1)N1CCC2(CC1)CN(c1ccc(-c3ccccc3)cc1)C2,-21%
CCCCC[C@H](O)/C=C/[C@H]1[C@H](O)CC(=O)[C@@H]1CCCCCCC(=O)O,14µM*!
O=C(c1ccncc1)N1CCC[C@@]2(CCN(Cc3ccncc3)C2)C1,-8%

# Bioassay records: PubChem, National Center for Advancing Translational Sciences (NCATS)
